eIF4H inh: inhibitors of RNA binding by human eIF4H; Q15056; eIF4H fluorescence polarization binding assay; inhibition, % at 35 µM; actives 0.94% (n = 290,000); AID 2012;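 active means 50% or more with normal probe brightness, or confirmed in later tests; about a fifth of its hits are not listed in these tables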;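 further: calls also rest on retests at 20 µM and on dose response follow-up; 0% = protein and probe with vehicle and 100% = probe without protein; strong numbers were not always called active; many hits fall short of the cut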
PABP polyA inh: PABP-poly(A) binding inhibition. AID 2014. PABP-poly(A) RNA binding, fluorescence polarization. inhibition, % at 35 µM. actives 1% (n = 290,000);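 active means 50% or more with normal probe brightness, or confirmed in later tests; about a fifth of its hits are not listed in these tables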;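 further: calls also rest on retests at 20 µM and on dose response follow-up; controls were probe without protein and protein plus probe with vehicle; some compounds called inactive have numbers as strong as hits; many hits fall short of the cut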
MT1-MMP act inh: MT1-MMP (human) activation inhibition; P50281; HT1080 RFP-PRO-GFP cells, GFP/RFP ratio fluorescence, overnight; percent of plate control window, DMSO zero; GFP/RFP ratio change, % at 20 µM; actives 0.061% (n = 360,000);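 active means GFP/RFP ratio change of at least 30% with cell ATP level not reduced by more than half and red fluorescence within 50% of control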; further: strong numbers were not always called active
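Assay system: RFP-PRO-GFP reporter HT1080 cells; read-out basis: GFP/RFP fluorescence ratio; benchmarks: DMSO wells and RFP-L50D-GFP cells; doses: 20 µM single dose, 1% DMSO; schedule: overnight cell settling, then overnight compound exposure, 37 °C, 5% CO2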
Rce1 inhib: blocks yeast Ras-converting enzyme; yeast membranes, quenched prenylated peptide cleavage fluorescence; calls only; actives 0.27% (n = 290,000); AID 2563;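 active means fall in fluorescence gain of 50% or more versus controls, with final raw signal at or below 3038400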;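 further: plate controls were neutral control wells for no effect and wells lacking membranes for full effect; tested at 10 µM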
Target sequence (Q03530 whole entry, looked up): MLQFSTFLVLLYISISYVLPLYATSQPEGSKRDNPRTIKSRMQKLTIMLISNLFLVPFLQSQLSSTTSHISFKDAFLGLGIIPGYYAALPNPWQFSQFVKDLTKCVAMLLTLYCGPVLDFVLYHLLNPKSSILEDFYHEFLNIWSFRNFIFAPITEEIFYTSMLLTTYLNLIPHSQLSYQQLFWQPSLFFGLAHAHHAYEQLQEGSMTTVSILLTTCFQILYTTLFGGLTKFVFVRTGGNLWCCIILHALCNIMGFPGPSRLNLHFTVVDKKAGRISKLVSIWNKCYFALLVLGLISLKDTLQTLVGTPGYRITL
CSC inhib: cancer stem cell inhibition | actives 1.1% (n = 300,000) | inhibition, % at 7.5 µM | cancer stem cell-like cells viability, luminescence;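 active means mean at 75% or more and at least half the replicates too; tested in HMLE shEcad cells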;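 further: 0% = median of negative and 100% = median of positive control wells; the first replicate is given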
Env fusion inh: inhibitors of HIV Env-mediated cell fusion; HeLa-JRFL Env/CEM21 cell fusion, luciferase; AID 651610; actives 1.1% (n = 360,000); inhibition, % at 12.3 µM;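 active means mean replicate inhibition score of at least 50 and every replicate individually at or above 50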;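 further: 0% = plate neutral controls and 100% = maraviroc near 300 nM; one replicate is shown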
UUG fidelity: yeast start codon fidelity modulation; activity score, % at 18.7 µM; S. cerevisiae UUG-firefly luciferase reporter, luminescence/redox ratio; actives 0.13% (n = 350,000);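 active means replicate mean at a twofold rise or more, about +100% in these data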;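 further: firefly luciferase made from a UUG start codon reports start codon fidelity; reporter light over untreated wells divided by growth signal over untreated wells; some hits fall short of that in this replicate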
eIF4H inh retest: second read-out of eIF4H inh, no call of its own (marks repeat the call); inhibition, %; compound at 20 µM; confirmation average;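 mean of two retest wells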
PABP polyA inh retest: also measured in PABP polyA inh; calls as there; inhibition, %; compound at 20 µM; confirmation repeats;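 mean of two retest wells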
MT1-MMP act inh RFP: second read-out of MT1-MMP act inh, no call of its own (marks repeat the call); RFP signal change, %; measured here: RFP expression control read;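 0 = vehicle wells; hits needed this value within 50% of zero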
Starred values were filed as active, the others as inactive; i = inactive; · = no result given; [ ] = remark or other dose.

SMILES	eIF4H inh	PABP polyA inh	MT1-MMP act inh	MT1-MMP act inh RFP	Rce1 inhib	CSC inhib	Env fusion inh	UUG fidelity	others
Cc1nc(NCc2ccco2)c2oc3ccccc3c2n1	-11	6	4	-7	i	-10	·	-17
CSCc1ccc(C(=O)Nc2ccc(C(N)=O)cc2)cc1	1	2	1	-1	i	-4	-16	·
S=c1[nH]nc(-c2ccccn2)n1/N=C/c1ccc(-c2ccccc2Cl)o1	22	-10	3	8	i	-9	-1	·
CCc1noc(C)c1C(=O)N1CCCC(N2CCN(c3ccc(F)cc3)CC2)C1 (stereo unspecified)	5	2	1	-3	i	11	12	-13
O=C(CSc1ccc2nnc(-c3ccccn3)n2n1)Nc1ccccc1	-14	-4	-2	0	i	-10	·	-29
CCCCn1c2ccccc2c2nnc(SCC(=O)NC3=NN=C(c4ccccc4)CS3)nc21	9	-1	·	·	i	0	15	·
O=C(COc1ccc(S(=O)(=O)N2CCOCC2)cc1)Nc1ccc(Br)cc1	·	·	4	-5	·	22	-1	-10
O=C(Nc1ccc(S(=O)(=O)NC2=NCCCCC2)cc1)c1cc(F)c(F)cc1Cl	·	·	5	-3	·	·	-1	-4
Cc1ccc(NS(=O)(=O)c2cccc(C(=O)NCC(c3ccco3)N3CCCCC3)c2)cc1 (stereo unspecified)	-3	-6	0	-7	i	3	19	9
O=C(CCC(=O)Nc1ccccc1Cl)NNC(=O)NC1CCCCC1	-1	-6	0	3	i	-8	12	-10
CC(=O)Nc1ccc(NC(=O)COC(=O)c2cnccn2)cc1	3	-25	4	8	·	-11	7	·
Cc1cccc(C2c3[nH]c4ccccc4c3CCN2Cc2cccn2-c2ncccn2)c1 (stereo unspecified)	38	24	-12	-10	i	18	-17	·
COc1cc2cc(C(N)=O)c(N)nc2cc1OC	-6	-2	16	2	i	7	·	-7
O=S(=O)(Cc1ccc(Cl)cc1)N1CCCC1	-7	0	1	0	i	-5	·	-7
Cc1ccc(OCc2nnc(N)s2)cc1	-4	3	3	1	i	-8	12	·
Cc1cc(C)nc(NC(=O)c2c(-c3c(Cl)cccc3Cl)noc2C)n1	4	8	-5	6	i	·	·	-15
Cc1onc(-c2ccccc2)c1C(=O)N/N=C/c1ccccc1OC(C)C	-1	-7	-2	3	·	-3	21	-5
N#CNC(=Nc1ccccc1F)SCc1ccc(C(=O)O)cc1	8	8	4	4	i	4	-2	·
CSc1nc(Cl)cc(Nc2ccccc2N)n1	-3	10	2	0	i	-5	79*	-27
O=[N+]([O-])c1ccccc1-c1ccc(C(=S)N2CCCC2)o1	25	-2	-11	6	i	-10	-73	-14
COc1ccc(N=c2oc3ccc(OC)cc3cc2-c2nc3ccccc3[nH]2)cc1	3	1	1	-4	i	18	i	-19
O=S(=O)(Nc1cccc(-n2cnnn2)c1)c1cnc(Cl)c(Cl)c1	-6	2	1	0	i	-2	4	1
COc1ccc(OC)c(NC(=O)Nc2cccc3ccccc23)c1	-7	-6	6	-1	i	-6	30	-20
CC(C)(O)c1nnn(-c2ccccc2)c1C(F)(F)F	0	-1	0	6	·	-6	·	-6
COc1ccc(S(=O)(=O)Nc2cccc3c2O[C@H](CN(C)Cc2ccc(-c4ccccc4)cc2)[C@@H](C)CN([C@H](C)CO)C3=O)cc1	·	·	2	-10	·	-1	-15[16.7 µM]	-13
CCC1CN(C(=O)N2CCC(C(=O)NCc3cccc(OC)c3OC)CC2)c2cc(C)ccc2O1 (stereo unspecified)	-24	-1	2	0	i	-5	9	15
CCOc1cc(C(=S)N2CCOCC2)ccc1OC(=O)c1cccc(C)c1	3	13	-3	-10	i	-2	1	5
CCOc1ccccc1Oc1c(C)oc2c(CN3CCN(C)CC3)c(O)ccc2c1=O	1	0	4	28	·	-5	-58	-6
COc1ccc(C(=O)Nc2ccccc2C(=O)N(Cc2ccco2)C(C(N)=O)C(C)C)cc1 (stereo unspecified)	-7	0	-5	-3	i	-4	-192	-13
O=S(=O)(Nc1ncccn1)c1ccc(NC(=S)NCCc2ccc(Cl)cc2)cc1	3	-15	4	-1	i	-9	-30	·

3 compounds drawn at random from those above, as already listed:
SMILES	eIF4H inh	PABP polyA inh	MT1-MMP act inh	MT1-MMP act inh RFP	Rce1 inhib	CSC inhib	Env fusion inh	UUG fidelity	others
Cc1nc(NCc2ccco2)c2oc3ccccc3c2n1	-11	6	4	-7	i	-10	·	-17
O=C(COc1ccc(S(=O)(=O)N2CCOCC2)cc1)Nc1ccc(Br)cc1	·	·	4	-5	·	22	-1	-10
CCOc1cc(C(=S)N2CCOCC2)ccc1OC(=O)c1cccc(C)c1	3	13	-3	-10	i	-2	1	5

(next part)
SMILES	eIF4H inh	PABP polyA inh	MT1-MMP act inh	MT1-MMP act inh RFP	Rce1 inhib	CSC inhib	Env fusion inh	UUG fidelity	others
CCCCC(NC(C)=O)c1nc2ccccc2n1CCC (stereo unspecified)	-3	-17	-4	-3	i	-18	20	-6
COc1cccc(NC(=O)Nc2nc(-c3ccc(OC)c(OC)c3)cs2)c1	1	-1	-28	-25	i	104*	-229	-9
CCOC(=O)/C=C/C(=O)OCC(=O)N1CCN(C(=O)c2ccco2)CC1	9	18	-2	-3	i	1	-6	-16
CCCCC(=O)NNC(=S)NCc1ccccc1	-13	-13	-1	-1	i	-3	-2	-23
CC(=O)c1cccc(NC(=O)c2cc(C(C)C)on2)c1	0	0	6	6	i	-6	-57	-22
O=C(NC1CC1)c1cccc(Br)c1	5	7	-1	3	i	-3	·	·
Cn1c(SCC(=O)Nc2ccc(N3CCOCC3)cc2)nnc1-c1ccccc1F	0	-6	4	1	i	-4	-6	-6
CCOc1ccccc1N1CCN(C(=S)Nc2ccc(S(=O)(=O)Nc3ncccn3)cc2)CC1	-7	2	-7	0	i	0	7	-27
Cc1sc2ccccc2c1CNC[C@H]1O[C@@H](n2ccc(=O)[nH]c2=O)[C@H](O)[C@@H]1O	·	·	1	2	·	·	-3	-10
CCC(=O)N1CCN(c2ccc(Cl)cc2NC(=O)c2ccc3c(c2)OCCO3)CC1	0	-13	-7	-5	i	-13	-41	6
CC(C)C(=O)N1CCN(c2ccc(NC(=O)COc3ccccc3[N+](=O)[O-])cc2)CC1	7	2	1	-12	i	-13	4	-7
CN(C)C(=O)N1CCC(C(=O)NCc2ccc(F)cc2)CC1	2	-7	2	3	i	-14	3	-9
O=C(Nc1ccccc1)c1cc(C2CCCN(C(=O)OCc3ccccc3)C2)on1 (stereo unspecified)	·	·	8	1	·	·	2	-14
c1cncc(-c2nc(NCC3COc4ccccc4O3)c3ccccc3n2)c1 (stereo unspecified)	6	6	-11	-18	i	23	·	1
Cc1ncc([N+](=O)[O-])n1CCOC(=O)NC(NCc1ccccc1)C(Cl)(Cl)Cl (stereo unspecified)	4	8	3	6	i	-7	·	·
COc1cccc(-c2cc3c(c4c2ccn4C)C2CCC3C2)c1 (stereo unspecified)	·	·	12	9	·	·	-2	-8
COC(=O)c1cc(N2CCNCC2)nc2ccccc12	66	35	-5	4	i	-31	-7	-12	eIF4H inh retest=25;PABP polyA inh retest=31
O=C(NCCCn1ccnc1)/C(=C/c1ccccc1)NC(=O)c1ccccc1	-5	2	-3	3	i	-1	12	·
CC(=O)Nc1cc2c(cc1Br)OCCO2	-4	7	-1	4	i	4	·	-51
CCOc1ccc(OCC)c(C2C(C#N)=C(N)N(c3cccnc3)C3=C2C(=O)CC(C)(C)C3)c1 (stereo unspecified)	8	20	-8	-1	i	-2	-15	-16
O=c1cc(-c2ccsc2)oc2cc(-c3ccc4c(c3)OCO4)ccc12	·	·	6	-1	·	46	-4	-22
CCOc1ccccc1N1CC(C(=O)Nc2cccc(S(=O)(=O)N3CCCCC3)c2)CC1=O (stereo unspecified)	-3	31	4	-7	i	-2	26	-18
Cc1cc(C)cc(NC(=O)CN(C)CC(=O)N(CC(C)C)c2c(N)n(CC(C)C)c(=O)[nH]c2=O)c1	·	·	0	2	·	1	18	-12
O=C(NCCCN1CCCCCC1)c1ccc2c(Cl)c3c(nc2c1)CCCC3	-1	-4	2	-2	i	31	9	·
Cc1ccc(Nc2cc(=O)[nH]c(=O)[nH]2)c(C)c1	-6	-7	2	0	i	-1	·	·
CS(=O)(=O)c1ccc(C(=O)Nc2cccc(-c3nc4ccccc4[nH]3)c2)cc1	4	-5	3	3	i	11	2	-22

Molecules shown so far that contain a Cl atom (eleven):
SMILES	eIF4H inh	PABP polyA inh	MT1-MMP act inh	MT1-MMP act inh RFP	Rce1 inhib	CSC inhib	Env fusion inh	UUG fidelity	others
S=c1[nH]nc(-c2ccccn2)n1/N=C/c1ccc(-c2ccccc2Cl)o1	22	-10	3	8	i	-9	-1	·
O=C(Nc1ccc(S(=O)(=O)NC2=NCCCCC2)cc1)c1cc(F)c(F)cc1Cl	·	·	5	-3	·	·	-1	-4
O=C(CCC(=O)Nc1ccccc1Cl)NNC(=O)NC1CCCCC1	-1	-6	0	3	i	-8	12	-10
O=S(=O)(Cc1ccc(Cl)cc1)N1CCCC1	-7	0	1	0	i	-5	·	-7
Cc1cc(C)nc(NC(=O)c2c(-c3c(Cl)cccc3Cl)noc2C)n1	4	8	-5	6	i	·	·	-15
CSc1nc(Cl)cc(Nc2ccccc2N)n1	-3	10	2	0	i	-5	79*	-27
O=S(=O)(Nc1cccc(-n2cnnn2)c1)c1cnc(Cl)c(Cl)c1	-6	2	1	0	i	-2	4	1
O=S(=O)(Nc1ncccn1)c1ccc(NC(=S)NCCc2ccc(Cl)cc2)cc1	3	-15	4	-1	i	-9	-30	·
CCC(=O)N1CCN(c2ccc(Cl)cc2NC(=O)c2ccc3c(c2)OCCO3)CC1	0	-13	-7	-5	i	-13	-41	6
Cc1ncc([N+](=O)[O-])n1CCOC(=O)NC(NCc1ccccc1)C(Cl)(Cl)Cl (stereo unspecified)	4	8	3	6	i	-7	·	·
O=C(NCCCN1CCCCCC1)c1ccc2c(Cl)c3c(nc2c1)CCCC3	-1	-4	2	-2	i	31	9	·

Screening data (PubChem)
